Compound activity from PubChem.
NPYLR7 agonist: agonists of mosquito NPYLR7 receptor, primary screen, cell-based, Aedes aegypti, calcium fluorescence, mosquito biting behavior. Aedes aegypti neuropeptide Y-like receptor 7 (NPYLR7). HEK293T NPYLR7/Galpha15, GCaMP6s calcium fluorescence. activation, % at 10 µM. hit rate 0.15% among 270,000. AID 1259423, 2018; in the data active = activation above about 40%;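 also: 0% = vehicle and 100% = reference agonist at the receptor; some compounds past the cut are filed as inactive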
NPYLR7 agonist max-min: also measured in NPYLR7 agonist; calls as there; activation, %; measured here: Max-Min RFU normalised activation; some inactives read as strong as hits;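 span of the calcium signal over five minutes; 0% = vehicle and 100% = native peptide agonist; compound fluorescence can raise it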
An asterisk follows results filed as active; & = joins results of further samples.

Preview (3 entries):
Values in the order: NPYLR7 agonist, NPYLR7 agonist max-min
COc1ccc(CN2CCNC(=O)C2CC(=O)NCCC2=CCCCC2)cc1OC (stereo not drawn)
  0, -1
O=C(Nc1ccccc1F)c1ccc2c(c1)S(=O)(=O)Nc1ncnn1-2
  -8, -7
CSc1nnc(C)c(=O)n1COC(=O)c1cc(Br)ccc1Cl
  0, 0

The list itself, previewed entries included:
Values in the order: NPYLR7 agonist, NPYLR7 agonist max-min
COc1ccc(CN2CCNC(=O)C2CC(=O)NCCC2=CCCCC2)cc1OC (stereo not drawn)
  0, -1
O=C(Nc1ccccc1F)c1ccc2c(c1)S(=O)(=O)Nc1ncnn1-2
  -8, -7
CSc1nnc(C)c(=O)n1COC(=O)c1cc(Br)ccc1Cl
  0, 0
CCC(C)NC(=O)c1cc(NC(=O)Nc2ccc(F)c(Cl)c2)ccc1N1CCN(c2ccccc2OC)CC1 (stereo not drawn)
  15, 20
Cc1ccc(NC(=O)C(C)N(C)Cc2cnn(C)c2)cc1F (stereo not drawn)
  2, 1
Cc1ccc2c(CCNC(=O)C(C)(C)C)c[nH]c2c1
  11, 10
NC(N)=NS(=O)(=O)c1ccc(N)cc1
  -8&-7&1, -10&-10&2
CCCNc1nc(SCCC)nc2c1cnn2CCNC(=O)c1cc2ccccc2o1
  3, 0
Fc1ccc(Cl)c(F)c1-c1nccn1Cc1nc(-c2ccccn2)no1
  4, 2
Cc1ccc(N2CCN(C(=O)c3ccc(F)cc3)C(C)C2=O)cc1Cl (stereo not drawn)
  30, 35
CCOc1ccc(OCCCC(=O)Nc2ccc3c(c2)OCO3)cc1
  4, 2
Cc1cc(C(=O)CSc2nnnn2Cc2cccs2)c(C)n1CC1CCCO1 (stereo not drawn)
  7, 13
CC1=C/C(=N/OS(=O)(=O)c2ccc(C)cc2)C2C(C1=O)C2(C)C (stereo not drawn)
  6, 5
CON(S(=O)(=O)c1ccccc1)S(=O)(=O)c1ccccc1
  0, 1
CC(Oc1ccc(C#N)cc1)C(=O)NC(c1cccc(F)c1)c1nccn1C (stereo not drawn)
  -1, -5
Cc1ccc2sc(N(CCCn3ccnc3)C(=O)c3ccc4c(c3)OCCO4)nc2c1C
  -4, -15
CCCC(CCC)C(=O)Nc1cc(-c2cn3nc(OC)ccc3n2)ccc1OC
  -9, -17
O=C(NC1CCN(c2ccccc2C(=O)N2CCN(c3ccc(Cl)cc3)CC2)CC1)c1cccs1
  -1, 2
CN1CCC(NC(=S)N(Cc2ccc(Cl)c(Cl)c2)C2CC2)CC1
  2, 24
O=C1NC(=O)C(=Cc2ccc(-c3cccc([N+](=O)[O-])c3)o2)C(=O)N1
  -3, -7
O=C1CC(c2nc3ccccc3n2Cc2ccccc2)CN1Cc1ccccc1 (stereo not drawn)
  -3, -2
C=CCN(Cc1ccccc1OC)C(=O)c1ccc2n[nH]nc2c1
  12, 11
CCCNC(=O)CS(=O)Cc1nc(-c2ccc(Cl)cc2)no1 (stereo not drawn)
  7, 4
CC1CN(C)CCN1C(=O)c1ccnc(Oc2ccccc2)c1 (stereo not drawn)
  5, 2
c1ccc(-c2ccc(CN3CCn4cncc4C3)cc2)nc1
  19, 16
COc1ccc(-c2nc3scc(CCNS(=O)(=O)c4cc(C)ccc4OC)n3n2)cc1
  1, 0
CCOC(=O)c1cnc(-c2ccc(C(F)(F)F)cc2)nc1NCCc1ccncc1
  21, 19
CC(C)c1nc(CN(C)c2cc(N3CCOCC3)nc(N)n2)cs1
  -6, -7
CC(C)C(CO)NC(=O)c1ccc2c(c1)C(=O)N(c1ccc(Cn3cncn3)cc1)C2=O (stereo not drawn)
  14, 42
O=C(C1CCOC1)N1CCN(C23CC4CC(CC(C4)C2)C3)CC1 (stereo not drawn)
  0, 0
CNS(=O)(=O)c1cc(Br)ccc1OC
  3, 0
CSc1nncc(-c2ccc(F)cc2)n1
  0, 6
Cc1ccc(-c2onc3c2CCCC3)cc1NC(=O)/C=C/c1ccc(OC(F)(F)F)cc1
  24, 28
CCOC(=O)c1nc2cc(C)c(C)cc2nc1N1CCN(S(=O)(=O)c2ccccc2C#N)CC1
  5, 5
COc1ccc(OC)c(C2NC(=O)N(C)C3=C2C(=O)N(Cc2cccc(C(F)(F)F)c2)C3)c1 (stereo not drawn)
  2, 2
CC(C)NC(=O)C(C#N)=Cc1ccccc1Br
  4, -2
CC1(C)C2([N+](=O)[O-])CN3CC1([N+](=O)[O-])CN(C2)C3c1ccccc1F (stereo not drawn)
  8, 0
CCOc1ccc(C(=O)Nc2c(N)nc(SC(C)C(=O)O)[nH]c2=O)cc1 (stereo not drawn)
  -2, -1
COc1ccc(C(=O)N2CCCC(CO)(CCOc3ccccc3)C2)c(OC)n1 (stereo not drawn)
  1, -2
COC(=O)c1ccc(C(=O)OC)c(NCc2cc(=O)oc3cc(-c4ccccc4)c(O)cc23)c1
  2, 2
O=c1c2nnn(-c3cccc(Cl)c3)c2ncn1C/C=C/c1ccccc1
  7, 9
CCN1CCN(C(=O)c2c(C)nn(-c3ccccc3Cl)c2C(C)C)CC1
  24, 13
Cc1cc(C)c2c(c1C(=O)NCCCOc1cccc([N+](=O)[O-])c1)CC(C)(C)C2=O
  -8, -10
CC(C)[C@H]1CC[C@H](C)C[C@@H]1OCC(=O)N1CCN(C(=O)c2cc(-c3ccccc3)nc3ccccc23)CC1
  -9, -16
Cc1ccc(-c2nc(NC(=O)c3cccc(S(C)(=O)=O)c3)n[nH]2)cc1
  -3, 1
COc1ccc(N(C(C)=O)c2nc(C=C3N=C(c4ccc(F)cc4)OC3=O)cs2)cc1
  4, -2
COc1ccc(CNC(=O)C(=O)NCC2OCCCN2S(=O)(=O)c2cc(C)ccc2C)cc1 (stereo not drawn)
  8, 9
CCOC(=O)c1ccc(NC(=O)CSc2nccn3nc(-c4cccc5ccccc45)cc23)cc1
  -4, -9
O=C(CCC1CCCC1)Nc1c(-c2ccc(Cl)cc2)nc2ccccn12
  -4, 3
Cc1cc(C)c(C)c(S(=O)(=O)N2c3ccccc3CC2C)c1C (stereo not drawn)
  -17, -22
Cc1ccc2[nH]c(O)c(N=Nc3ccc([N+](=O)[O-])cc3[N+](=O)[O-])c2c1Br
  16, 0
CC(=O)NC1CCN(C(=O)c2ccc(OC(CCN(C)C)c3ccc(-c4ccccc4)cc3)cc2)C1 (stereo not drawn)
  0, 16
O=C(N[C@H](CO)Cc1ccccc1)C1CC=CCC1C(=O)N1CCc2ccccc2C1 (stereo partly drawn)
  7, 6
Cc1cc(C)cc(N2CCCn3c2nc2c3c(=O)n(CCN3CCCCC3)c(=O)n2C)c1
  21, 12
Cc1ccc(C)c(Cn2ccn3nc(-c4ccc(C)c(C)c4)cc3c2=O)c1
  -2, -3
O=C(CCCl)N1CCN(c2ncnc3c2nnn3Cc2ccccc2)CC1
  -4, -14
CCN(CC)C(=O)c1cnc2nc(C)ccc2c1Nc1cc(C)ccc1OC
  -7, -9
COCCn1ccnc1C1CC(=O)Nc2cc(O)c(C)cc21 (stereo not drawn)
  4, 4
COc1ccc(C(=O)N2CC(=O)N(C3Cc4ccccc4C3)CC(O)C2)cc1OC (stereo not drawn)
  1, 4
CCn1c(C2CCN(C(=O)Cn3nc4ccccc4n3)CC2)nn(C)c1=O
  15, 8

Other results:
Molecule	NPYLR7 agonist	NPYLR7 agonist max-min
O=C(O)CCCn1cc(NC(=O)c2ccc(Br)o2)cn1	3	1
CCC(=O)Nc1nc(-c2ccc(Cl)cc2)cs1	0	1
CCN(CC)c1ccc2cc(C(=O)NCc3ccccc3)c(=N)oc2c1	-1	-8
CC(NC(=O)OCc1ccccc1)C(=O)N1CCOC(c2ccccc2)C1 (stereo not drawn)	-7	-12
Cn1cc(/C=C(/C#N)c2ccc(C(F)(F)F)cn2)cn1	19	17
CCN(CC)c1ccc(C2NC(=O)NC(C)=C2C(=O)OCc2ccc(OC)cc2)cc1 (stereo not drawn)	-2	-4
O=C(Cn1nnnc1CN1CCOCC1)N1CCC(c2cccc(Cl)c2)C1 (stereo not drawn)	-4	-7
COc1cccc(CN2CCCC(NC(=O)c3c(C)cc(C)[nH]c3=O)C2)c1 (stereo not drawn)	18	11
CC(C)(C)NC(=O)c1ccc2c(c1)C1C3CCC(C3)C1C(c1ccccc1)N2 (stereo not drawn)	1	-1
CC(=O)N1CCCC1C(=O)OC1CCC(C(C)(C)C)CC1 (stereo not drawn)	9	8
CC(=O)c1ccc(S(=O)(=O)N2CCC(Cc3ccc(C(F)(F)F)cc3)CC2)cc1	0	2
COc1cc(C)c(NC(=O)CCc2nc(-c3ccsc3)no2)cc1OC	1	3
CC1CN(C)CCN1CC(=O)Nc1nc(-c2cccs2)cs1 (stereo not drawn)	-4	-4
CC(C)c1ccccc1NCC(=O)NN1C(=O)NC2(CCCCC2)C1=O	-2	3
Cc1ccc(C2(O)CCN(Cc3cnc(NCC4CCCO4)nc3)CC2)nc1 (stereo not drawn)	17	5
Cc1cccc(C)c1-c1ccc(-c2nn[nH]n2)cc1	10	-1
C[C@H](NC(=O)Nc1ccccc1Br)C(=O)N1CCC(C(=O)N2CCCCC2)CC1	-13	-2
COc1ccc(C(c2c(NC(=O)c3ccco3)sc(C)c2C)N2CCCC2)cc1 (stereo not drawn)	5	4
O=C(c1cnn2c(C(F)(F)F)cc(-c3cccs3)nc12)N1CCOCC1	-5	-8
C#CCN(Cc1ccccc1Cl)C(=O)c1cc(F)cc(F)c1	-1	-3
CCOC(=O)C1CCN(C(=O)C2COC3(CCN(C(=O)CC(C)C)CC3)N2C(=O)c2ccc(F)cc2)CC1 (stereo not drawn)	1	9
O=S(=O)(NC1CCCC1)c1ccc(N/N=C\C2CC=CCC2)nc1 (stereo not drawn)	-6	-8
COc1ccc(OC)c(-c2nnc(NC(=O)c3nn(C)cc3C)o2)c1	-8	-8
Cc1ccc(S(=O)(=O)N2CCOCC2)cc1-c1nc2ccccc2s1	9	5
CCc1nc(SC(C)c2ncc(-c3ccccc3)o2)n[nH]1 (stereo not drawn)	14	9
CC(C)CCNc1nc2c(-c3cccc(Br)c3)nnn2c2ccccc12	3	1
Nc1n[nH]c(-c2ccc(Cl)cc2)n1	2	9
CN(Cc1ccccc1)C(=O)CN1CN(c2ccccc2)C2(CCN(C(=O)c3ccc(C(F)(F)F)cc3)CC2)C1=O	12	20
Cc1ccc(S(=O)(=O)N2C(=O)CCC2C(=O)ON=C(N)c2ccncc2)cc1 (stereo not drawn)	0	7
CCOC(=O)c1cc([N+](=O)[O-])sc1NC(=O)c1ccccc1Br	27	26
FC(F)Sc1ccc(-n2c(-c3cccnc3)n[nH]c2=S)cc1	3	2
Cc1ccc2[nH]c3c(=O)n(CC(=O)NCc4c(C)nn(C)c4C)cnc3c2c1	5	2
NS(=O)(=O)CCNC(=O)C1CC1c1ccc(Cl)cc1Cl (stereo not drawn)	0	-4
CCN(CC)C(=O)Oc1ccc2c(ccn2Cc2ccccc2Cl)c1NS(=O)(=O)c1ccc(C)cc1OC	-1	-1
CCc1ccc(CN(C)S(=O)(=O)c2ccc3c(c2)NC(=O)CC(=O)N3)cc1	2	1
CC(C)(C)N(Cc1ccccc1)C(=O)Cn1ccsc1=N	5	1
CC(C)N1C(=O)C2(N=C(N)Nc3nc4ccccc4n32)c2ccccc21 (stereo not drawn)	20	15
CN[C@H]1CCc2cc(OC)c(OC)c(OC)c2-c2ccc(N[C@@H]3CCCCNC3=O)c(=O)cc21	2	2
O=C(CS(=O)Cc1cccc(F)c1)NCC1CC1 (stereo not drawn)	18	9
COCCOC(=O)C1=C(C)NC2=C(C(=O)CCC2)C1c1cc(OC)c(O)c(OC)c1 (stereo not drawn)	-4	-9
Cc1cc(C)n(CCCN(C)C(=O)c2cnn3ccn(C)c23)n1	9	6
Cn1cc(-c2cc(C(=O)N3CCCN(c4ncccn4)CC3)c3ccccc3n2)cn1	1	-5
C=CCN(C)C(=O)C[C@@H]1c2nc(C)sc2C[C@@H]2[C@](C)(CO)[C@H](O)CC[C@]21C	-12	-15
O=C(c1ccc(-c2ccccc2)c(F)c1)C1CCCN(C(=O)CCN2CCCO2)C1 (stereo not drawn)	-9	-10
COc1ccc2nc(C(=O)NCC(C)c3ccccc3)ccc2c1 (stereo not drawn)	7	2
Cc1ccn2c(=O)c(C(=O)NCCCN(C)C)c(O)nc2c1	0	27
CCOC(=O)c1c(NC(=O)CCSC)sc2c1CCN(c1ccc(Cl)nc1)C2	1	-2
CCC(C)n1cnc(S(=O)(=O)Nc2cc(CO)ccc2C)c1 (stereo not drawn)	1	23

One compound at a time, from the list above. Order of values: NPYLR7 agonist	NPYLR7 agonist max-min
O=C(c1ccc(-c2ccccc2)c(F)c1)C1CCCN(C(=O)CCN2CCCO2)C1 (stereo not drawn) as listed: -9	-10
Cc1cc(C)n(CCCN(C)C(=O)c2cnn3ccn(C)c23)n1 as listed: 9	6
Cn1cc(-c2cc(C(=O)N3CCCN(c4ncccn4)CC3)c3ccccc3n2)cn1 as listed: 1	-5
CCOC(=O)c1c(NC(=O)CCSC)sc2c1CCN(c1ccc(Cl)nc1)C2 as listed: 1	-2

(further entries)
Molecule	NPYLR7 agonist	NPYLR7 agonist max-min
CCCCCC(=O)N1CC[C@@H](CC(=O)N(C)CCC#N)[C@@H](CC)C1	-7	-16
C=Cn1cc(C2CC(=O)Nc3n[nH]c(-c4ccc(OC)cc4)c32)cn1 (stereo not drawn)	5	1
COCC(=O)Nc1ccc(F)cc1OCC1CC1	-3	0
CNC(=O)[C@@H]1C[C@@H](N)CN1Cc1cc(C)n(-c2cccnc2)c1C	-2	-12

The list is partial, so the mix of outcomes need not match the whole.
